From PubChem
HTT ATP protect = Huntington cell model cytoprotection by ATP luminescence. Potency, µM (titrated, usually from 56.4 µM), without a hit: cytoprotection (ATP increase), hits mostly activators. 0.14% of 230,000 active. PC12 HTT-Q103 induced, cytoprotection, ATP luminescence, 40 h;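 note: % of control where 0% means no effect; nearly all actives have a fitted effect of over 45% in size; toxic huntingtin expression switched on by the ecdysone agonist tebufenozide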
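Cells were plated at 1500 per well in phenol red-free DMEM with 5% equine and 5% calf serum. Tebufenozide (100 nM final) and compounds were added, then ATPlite reagent, and luminescence was read.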
HTT aggregate = mutant huntingtin aggregation inhibition; PC12 HttQ103-GFP aggregates, Acumen cytometry, 40 h; Potency, µM (series often up to 46.1 µM), for inactives: at the highest dose activity change, negative = inhibition, most hits filed as inhibitors; 1.1% of 220,000 active; note: % is set by controls: 0 for no effect and ±100 for the full control effect; nearly all actives have a fitted effect of over 60% in size
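Using laser scanning cytometry, GFP-positive aggregates were counted after lysis of PC12 cells induced with 100 nM tebufenozide to express HTT exon 1 Q103–GFP. Compounds were tested in titration.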
ALDH1A1 block = inhibitors of human aldehyde dehydrogenase 1A1; P00352; Purified ALDH1A1, NADH fluorescence, propionaldehyde substrate; Potency, µM (top dose mostly 75.3 µM), for the others: top-dose activity, negative = inhibition, most hits filed as inhibitors; 7.3% of 220,000 active; AID 1030; active = well fitted inhibition curve with a large enough effect, not every such curve was filed as active; inconclusive = small, poorly fitted or top-dose-only effect, or another doubt; inactive = no such curve, though single readings can be large or run the other way;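 note: plate controls were no enzyme wells and a reference inhibitor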
Target sequence (P00352 whole entry, looked up): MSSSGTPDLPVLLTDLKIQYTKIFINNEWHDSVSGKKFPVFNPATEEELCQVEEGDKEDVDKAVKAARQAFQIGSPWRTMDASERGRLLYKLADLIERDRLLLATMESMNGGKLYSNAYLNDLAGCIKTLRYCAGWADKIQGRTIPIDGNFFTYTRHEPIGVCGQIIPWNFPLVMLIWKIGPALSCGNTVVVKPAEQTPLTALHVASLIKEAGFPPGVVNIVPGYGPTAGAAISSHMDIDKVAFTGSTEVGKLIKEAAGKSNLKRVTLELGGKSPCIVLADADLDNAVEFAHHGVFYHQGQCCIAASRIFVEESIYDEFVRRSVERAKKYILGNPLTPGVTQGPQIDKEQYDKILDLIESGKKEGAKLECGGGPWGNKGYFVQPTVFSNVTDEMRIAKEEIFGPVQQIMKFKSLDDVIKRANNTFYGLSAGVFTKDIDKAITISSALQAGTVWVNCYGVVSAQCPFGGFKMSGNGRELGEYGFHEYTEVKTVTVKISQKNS
JMJD2E inh = blocks human JMJD2E demethylase activity; AID 2147; 1.6% of 230,000 active; Potency, µM (top dose mostly 57.1 µM), for inactives: at the top dose activity change, negative = inhibition, actives largely listed as inhibitors; JMJD2E catalytic domain, FDH-coupled NADH fluorescence (FDH is formaldehyde dehydrogenase); B2RXH2; active = well fitted inhibition curve with a large enough effect, not every such curve was filed as active; inconclusive = small, poorly fitted or top-dose-only effect, or another doubt; inactive = no such curve, though single readings can be large or run the other way;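 note: 0% = wells with enzyme and -100% = buffer wells without enzyme; nearly all actives have a fitted effect of over 50% in size; many of its hits are not listed in these tables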
SMN2 splice up = SMN2 splice variant enhancement; 2.8% of 210,000 active; HEK293 SMN2-luciferase splicing reporter, luminescence, 30-36 h; AID 1458; Potency, µM (series often up to 46.1 µM), without a hit: at the highest dose activity change, positive = activation, most hits filed as activators; note: % of control where 0% means no effect; nearly all actives have a fitted effect of over 55% in size
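qHTS luciferase splicing reporter: luminescence rises when SMN2 exon 7 is included in transfected HEK293 cells. Compound exposure lasted 30-36 h at 37C, with 4.5 mM final sodium butyrate as control, followed by a ONE-Glo read.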
* = called active by the depositor; ? = inconclusive; . = no result given; & = joins results of further samples; ! = not confirmed by another sample; [ ] = remark or other dose. Unless noted, calls come from the whole dose curve; as a rule, active = well fitted curve in the direction sought with a large enough effect; inconclusive = small, poorly fitted or top-dose-only effect, or another doubt; inactive = no such curve, though single readings can be large; an effect the other way counts as inactive or inconclusive. Potency is the fitted concentration of half-maximal effect. The list is partial. The share of hits here may be higher or lower than overall.

Every second line gives: HTT ATP protect | HTT aggregate | ALDH1A1 block | JMJD2E inh | SMN2 splice up
CNC1C(O)C(O)C(CO)O[C@H]1OC1C(O[C@@H]2C(O)C(O)[C@@H](N=C(N)N)C(O)C2N=C(N)N)OC(C)[C@]1(O)C=O (stereo not given in full)
 : -34%[inhibitor] | . | 5% | 0% | -2%
CC(=O)NC[C@H]1CN(c2ccc(N3CCOCC3)c(F)c2)C(=O)O1
 : . | . | . | 0% | .
CCN(CC)CC#CCOC(=O)C(O)(c1ccccc1)C1CCCCC1 (stereo not given)
 : . | 0% | -10%&8% | -8%&7% | -27%&-18%
COc1cccc2c1C(=O)c1c(O)c3c(c(O)c1C2=O)C[C@@](O)(C(=O)CO)C[C@@H]3O[C@@H]1C[C@H](N)[C@H](O)[C@H](C)O1
 : -67%[inhibitor] | . | 20µM* | 22µM* | -71%[inhibitor]
CC(=O)Oc1cc(C(C)C)c(OCCN(C)C)cc1C
 : ? | -8% | -4% | -2% | -40%[inhibitor]
Cc1c(C)c2c(c(C)c1O)CC[C@@](C)(CCC[C@@H](C)CCC[C@@H](C)CCCC(C)C)O2
 : ? | 11% | 7% | 6%[25.5 µM] | 8%[20.6 µM]
CCC1(c2ccccc2)C(=O)NCNC1=O
 : 1.4µM*! | -9%&-8% | 5% | -1% | -7%
CCCN(CCC)S(=O)(=O)c1ccc(C(=O)O)cc1
 : -8% | -11%&4% | -9% | -8% | -43%[inhibitor]
COCCOC(=O)C1=C(C)NC(C)=C(C(=O)OC(C)C)[C@@H]1c1cccc([N+](=O)[O-])c1
 : -52%[inhibitor] | . | -4% | -4% | .
Cc1cccc(C)c1OC[C@H](C)N
 : 83%[17.1 µM] | . | 8%[20.9 µM] | -4%[25.5 µM] | 1%[20.6 µM]
CCN1CCC[C@@H]1CNC(=O)c1cc(S(N)(=O)=O)ccc1OC
 : ? | . | 2% | -10% | .
CC(=O)O[C@]1(C(C)=O)CC[C@H]2[C@@H]3C=C(C)C4=CC(=O)CC[C@]4(C)[C@H]3CC[C@@]21C
 : . | 9% | -1% | 7%&-7% | -48%[inhibitor]
CN1C2CCC1CC(OC(c1ccccc1)c1ccccc1)C2 (stereo not given)
 : 1% | 14% | -4%&-1% | 1%&-3%&2% | -14%&-2%
NC(=O)c1cnccn1
 : ? | -10%&12% | -1%&0%&3%&11% | 1%&4%&0% | -4%&-7%&-7%&12%
O=C(O)CCCCC1CCSS1 (stereo not given)
 : -31%[1.9 µM] | 10%&24% | -15%&14%&5% | 5%&2%&-18% | -15%&0%&2%
COCCOC(=O)C1=C(C)NC(C)=C(C(=O)OC(C)C)C1c1cccc([N+](=O)[O-])c1 (stereo not given)
 : -57%&-31%&-23% | 15%&26% | -8%&-6%&-6%&4%&4% | -2%&4%&1%&-24% | -22%&-19%&-2%&-5%&12%
CC[C@@H](CO)Nc1nc(NCc2ccccc2)c2ncn(C(C)C)c2n1
 : ? | . | . | . | .
CN(C)CC[C@@H](c1ccc(Cl)cc1)c1ccccn1
 : -48%[inhibitor] | . | 5%&-2% | 4%&2% | -10%&5%
CC(C)c1ccc2oc3nc(N)c(C(=O)O)cc3c(=O)c2c1
 : -95%[inhibitor] | -6% | . | ? | .
S=c1nc[nH]c2nc[nH]c12
 : -145%[inhibitor] | . | 7.9µM* | 20µM* | -53%[inhibitor]
CN(Cc1cnc2nc(N)nc(N)c2n1)c1ccc(C(=O)NC(CCC(=O)O)C(=O)O)cc1 (stereo not given)
 : -138%[inhibitor] | . | 9% | -5% | -73%[inhibitor]
CN[C@H]1[C@@H](O[C@@H]2[C@H](O[C@@H]3[C@@H](O)[C@@H](O)[C@@H](N=C(N)N)[C@@H](O)[C@@H]3N=C(N)N)O[C@H](C)[C@@]2(O)C=O)O[C@@H](CO)[C@@H](O)[C@H]1O
 : -10%[40.3 µM] | . | 1%[20.9 µM] | 4%[25.5 µM] | -1%[20.6 µM]
C[C@@H](c1ncncc1F)[C@](O)(Cn1cncn1)c1ccc(F)cc1F
 : . | . | . | 12% | .
OCc1ccccc1O
 : ? | -15% | 6% | 9% | -4%

Fetched by structure from the list above:
Every second line gives: HTT ATP protect | HTT aggregate | ALDH1A1 block | JMJD2E inh | SMN2 splice up
CC[C@@H](CO)Nc1nc(NCc2ccccc2)c2ncn(C(C)C)c2n1
 : ? | . | . | . | .
OCc1ccccc1O
 : ? | -15% | 6% | 9% | -4%
CN(Cc1cnc2nc(N)nc(N)c2n1)c1ccc(C(=O)NC(CCC(=O)O)C(=O)O)cc1 (stereo not given)
 : -138%[inhibitor] | . | 9% | -5% | -73%[inhibitor]
S=c1nc[nH]c2nc[nH]c12
 : -145%[inhibitor] | . | 7.9µM* | 20µM* | -53%[inhibitor]
CC(C)c1ccc2oc3nc(N)c(C(=O)O)cc3c(=O)c2c1
 : -95%[inhibitor] | -6% | . | ? | .
Cc1cccc(C)c1OC[C@H](C)N
 : 83%[17.1 µM] | . | 8%[20.9 µM] | -4%[25.5 µM] | 1%[20.6 µM]
